# GIRK2 act = GIRK2 channel activation. P48051. HEK293-GIRK2 thallium flux, Thallos fluorescence. calls only for hits at 25 µM. 63,000 compounds, 0.05% hits. AID 1259325;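 active = among the strongest 0.2% of first-round signals and kept after retests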;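 note: first round at about 10 µM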
# Target sequence (P48051 whole entry, looked up): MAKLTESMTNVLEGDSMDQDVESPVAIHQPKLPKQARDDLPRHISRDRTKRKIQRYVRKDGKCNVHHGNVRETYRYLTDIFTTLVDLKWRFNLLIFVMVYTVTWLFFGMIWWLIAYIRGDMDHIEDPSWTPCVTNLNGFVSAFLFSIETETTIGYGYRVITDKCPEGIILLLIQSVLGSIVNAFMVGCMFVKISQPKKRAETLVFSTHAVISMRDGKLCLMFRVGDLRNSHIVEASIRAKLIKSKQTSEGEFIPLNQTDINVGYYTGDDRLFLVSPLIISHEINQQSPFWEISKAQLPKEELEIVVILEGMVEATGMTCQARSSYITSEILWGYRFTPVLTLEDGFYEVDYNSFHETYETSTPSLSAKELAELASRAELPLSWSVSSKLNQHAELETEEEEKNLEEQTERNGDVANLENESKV
# Calls only; i = inactive. A portion of the library; the hit share may differ from the screen's.
SMILES,GIRK2 act
O=C(Cn1c(=O)nc(-c2ccccc2)c2cc(Cl)ccc21)NCc1ccco1,i
CC(=O)c1cccc(NC(=O)c2ccc(S(=O)(=O)N(Cc3ccco3)C3CC3)o2)c1,i
Cc1ccc(N2CCCn3c2nc2c3c(=O)n(CCN3CCOCC3)c(=O)n2C)c(C)c1,i
COc1cccc(-c2csc(/C(C#N)=C\Nc3ccc(S(=O)(=O)Nc4cc(C)on4)cc3)n2)c1,i
COc1ccc(N2CCN(C(=O)c3cn(C)nc3C)CC2)cc1,i
CCOc1ccc(-c2cc3c(SCc4c(C)noc4C)nccn3n2)cc1Cl,i
Cc1ccc(N(C)S(=O)(=O)c2c(-c3ccccc3)csc2C(=O)NCc2ccccn2)cc1,i
NC(=O)Cn1c(=O)c2ccccc2c2ccccc2c1=O,i
COc1ccccc1N1CCN(C(=O)CC2=NS(=O)(=O)c3ccccc3N2)CC1,i
Cc1ccccc1-n1ncc2c1ncn1nc(CCc3ccccc3)nc21,i
COc1cc(-c2nc(Cn3nnc(C(=O)Nc4ccccc4)c3C)c(C)o2)cc(OC)c1OC,i
O=C(NCc1cccnc1)c1csc(Nc2ncccn2)n1,i
Cc1cc(C(=O)N2CCC(CSC3=NCCS3)CC2)no1,i
O=C(Cn1nc2c(c1NC(=O)COc1ccccc1F)CSC2)NCc1ccco1,i
O=C(NCCOc1ccc2nnc(-c3ccccc3)n2n1)c1ccc(-n2cccn2)nn1,i
COCCNC(=O)C(=O)NCC1OCCN1C(=O)c1ccc(Cl)cc1 (centres undefined),i
Cc1noc(-c2ccc(NC(=O)Cc3noc4ccccc34)cc2)n1,i
CCc1ccc(Oc2cc(N3CCC(C(=O)N4CC=C(c5ccccc5)CC4)CC3)ncn2)cc1,i
CC(C)c1nnc(NC(=O)c2c[nH]c3c(C(F)(F)F)cccc3c2=O)s1,i
CCCCCCCCCCCc1cc(O)cc(O)c1C(=O)OC(CCC)CCCCCCCc1cc(O)cc(O)c1 (centres undefined),i
Oc1cc(OCc2ccccc2F)ccc1-c1ncncc1-c1ccccc1,i
COCCN(Cc1ccncc1)S(=O)(=O)c1cc(C)c(Cl)cc1Cl,i
COc1ccc(-c2noc(-c3c(C)cc(C)n(CC(=O)Nc4ccccc4)c3=O)n2)cc1,i
COc1ccc(NC(=O)COc2cc(C)nc(N3CCCCCC3)n2)cc1,i
COC(=O)c1ccc(Cl)cc1NC(=O)CSc1ncc(S(=O)(=O)c2cccs2)c(N)n1,i

# The results go on:
SMILES,GIRK2 act
Cc1ccc2c(=O)c(C(=O)N3CCSCC3)cn(CC(N)=O)c2n1,i
CNC(=O)Cc1csc(Nc2ccc(F)cc2)n1,i
Cc1cccc(N(C)S(=O)(=O)c2cc(N(C)S(=O)(=O)c3ccccc3)c(C)cc2C)c1,i
COc1ccc(-c2noc(CS(=O)(=O)c3ccccc3)n2)cc1OC,i
CCN1C(=O)CCc2cc(NC(=O)c3ccc(OC)cc3)ccc21,i
COc1ccc(NC(=O)Cn2cc(S(=O)(=O)c3ccc(C)cc3)c(=O)c3cc(C)ccc32)cc1,i
O=C(N1CCc2ccccc2C1)C1(c2cccs2)CCCC1,i
O=C(NCc1ccccc1)c1ccc(Oc2nccnc2N2CCCCC2)cc1,i
COc1ccc(-c2c(C)oc3c4c(ccc3c2=O)OCN(CCN2CCOCC2)C4)cc1,i
O=C(c1c(F)cccc1Cl)N1CCN(c2ccc3nnc(-c4ccco4)n3n2)CC1,i
O=C(Cn1c(=O)nc(-c2ccccc2)c2ccccc21)Nc1ccc2c(c1)OCCO2,i
CCOc1cccc(C2c3c(oc4ccc(C)cc4c3=O)C(=O)N2c2nc(C)cs2)c1 (centres undefined),i
O=C(NCCn1nc(-n2ccnc2)ccc1=O)c1ccc(Cl)c(Cl)c1,i
O=C(c1ccc(-n2cccc2)cc1)N1CCN(C(=O)C2CC2c2ccccc2)CC1 (centres undefined),i
O=C(c1cccs1)N1CCN(CCNS(=O)(=O)C2CC2)CC1,i
OC(CCc1ccccc1)CC[C@H]1C(O)CC2OC(O)CC21 (some centres undefined),i
O=C(Cc1ccc(NC(=O)c2ccc(-n3cccc3)cc2)cc1)NCC(F)(F)F,i
CN1CCN(c2nnc(SCC(N)=O)s2)CC1,i
O=C(c1cn(-c2cc(N3CCCCC3)ncn2)cn1)N1CCN(c2ccccc2)CC1,i
CCCn1c(=O)c2ccc(C(=O)NC3CCCCC3)cc2n2c(=O)n(C)nc12,i
CCOC(=O)N1Cc2cncnc2C1,i
CS(=O)(=O)c1ccc(NC(=O)C2CN(C(=O)c3ccc(F)c(F)c3)C2)cc1,i
COc1ccc(-c2cc3c(=O)n(CC(=O)N4CCCc5ccccc54)ccn3n2)cc1,i
O=C(NCc1ccc2c(c1)OCO2)c1ccc2c(=O)nc3c(-c4cccc(F)c4)n[nH]n3c2c1,i
COc1ccc(C2c3c(oc4cc(OC)ccc4c3=O)C(=O)N2CCCN(C)C)cc1 (centres undefined),i

# 5 entries already listed, ordered by molecular weight, high to low.
SMILES,GIRK2 act
O=C(NCc1ccc2c(c1)OCO2)c1ccc2c(=O)nc3c(-c4cccc(F)c4)n[nH]n3c2c1,i
O=C(c1c(F)cccc1Cl)N1CCN(c2ccc3nnc(-c4ccco4)n3n2)CC1,i
OC(CCc1ccccc1)CC[C@H]1C(O)CC2OC(O)CC21 (some centres undefined),i
CN1CCN(c2nnc(SCC(N)=O)s2)CC1,i
CNC(=O)Cc1csc(Nc2ccc(F)cc2)n1,i

# The listing picks up; the 4 compounds before the break are reprinted first.
SMILES,GIRK2 act
CS(=O)(=O)c1ccc(NC(=O)C2CN(C(=O)c3ccc(F)c(F)c3)C2)cc1,i
COc1ccc(-c2cc3c(=O)n(CC(=O)N4CCCc5ccccc54)ccn3n2)cc1,i
O=C(NCc1ccc2c(c1)OCO2)c1ccc2c(=O)nc3c(-c4cccc(F)c4)n[nH]n3c2c1,i
COc1ccc(C2c3c(oc4cc(OC)ccc4c3=O)C(=O)N2CCCN(C)C)cc1 (centres undefined),i
Cn1cc(CC(=O)N2CC3(COC(C)(C)OC3)C2)c2ccccc21,i
CS(=O)(=O)N1CCc2nc(NC(=O)c3cccc(C(F)(F)F)c3)sc2C1,i
C=CCn1c(=O)c2ccc(C(=O)NCC(C)C)cc2n2c(=O)n(CC(N)=O)nc12,i
Cc1nnc(NC(=O)CN2CCc3nc(NC(=O)c4ccoc4)sc3C2)s1,i
Cc1cc(C(F)(F)F)nc(CCNC(=O)CSc2ccc(F)cc2)n1,i
CCCNC(=O)N1CCN(CCO)CC1,i
COc1cccc(CNC(=O)CSc2ncc(S(=O)(=O)c3cccs3)c(N)n2)c1OC,i
COc1ccc2c(c1)c(=O)c(S(=O)(=O)c1ccc(C)cc1)cn2Cc1ccccc1F,i
COC(=O)c1cn(Cc2ccccc2)nc1S(=O)(=O)N1CCSCC1,i
CN(CC(=O)NCCc1c[nH]c2ccccc12)c1nc2c(Cl)cccc2s1,i
CCOc1ccc(CC(=O)NCc2sc(-c3cccs3)nc2C)cc1,i
O=C(NCCOc1cccc2cccnc12)c1c(F)cccc1Cl,i
O=C(CCCc1ccccc1)Nc1cc(C2CC2)nn1-c1nc(-c2ccccc2)cc(=O)[nH]1,i
CCOC(=O)C1CCc2sc(NC(=O)c3csc(Nc4ccccc4)n3)nc21 (centres undefined),i
CN(C)CCN1C(=O)C(=O)C(=C(O)c2ccc3c(c2)OCCO3)C1c1ccccc1 (centres undefined),i
Cc1ccc(=O)n(C(C)C(=O)NCc2ccc3c(c2)OCO3)n1 (centres undefined),i
CCOCCn1c(N2CCN(Cc3ccccc3C)CC2)nc2c1c(=O)[nH]c(=O)n2C,i
O=C(CSc1nnc(N2CCN(C(=O)c3ccco3)CC2)s1)Nc1ccccc1,i
O=C(C1CC=CCC1)N1CCC(c2ccsc2)CC1 (centres undefined),i
COc1cc2ncn(-c3cc(OCCc4ccccc4)c(C(N)=O)s3)c2cc1OC,i
CCCCc1ccc(NC(=O)c2cc(=O)c(OCC)co2)cc1,i
COc1ccc(C(C)(C)C)cc1S(=O)(=O)NC1CCCC1,i
CN1CCN(c2ccnc(SCC(=O)c3ccc4c(c3)OCO4)n2)CC1,i
COc1cccc2sc(N(C)CC(=O)Nc3nc4c(s3)CCCC4)nc12,i
CCc1ccc2c(c1)c(=O)c(S(=O)(=O)c1ccc(C)cc1)cn2CC(=O)Nc1ccccc1OC,i

# (cont.)
SMILES,GIRK2 act
CNC(=O)CSc1nnc(N2CCN(C(=O)CCc3ccc(OC)cc3)CC2)s1,i
O=C(c1cccs1)c1ccc(CNC(=O)C2CC(=O)N(c3ccc(F)cc3)C2)s1 (centres undefined),i
Cc1cc(=O)n2c(-c3cccc(NC(=O)c4ccco4)c3)csc2n1,i
Cc1noc(-c2ccc(N3CCCC(C(=O)NCc4ccc(F)cc4)C3)nc2)n1 (centres undefined),i
COc1cc2nc3sc(Nc4cccc(C)c4)nn3c(=O)c2cc1OC,i
COC(=O)[C@H](Cc1ccccc1)NC(=O)/C=C/c1ccc(O)cc1,i
O=C(CSc1n[nH]c(=O)c2cc(-c3ccco3)nn12)Nc1ccc(Cl)c(C(F)(F)F)c1,i
O=C(CSC1=NNC2C3CC(c4ccc(F)cc4)NN3C=CN12)Nc1ccccc1C(F)(F)F (centres undefined),i
O=C(c1cccs1)c1ccc(CNC(=O)C2CC=CCC2)s1 (centres undefined),i
O=C(NCc1n[nH]c(=O)c2ccccc12)c1cccc2ccccc12,i
O=C(c1ccc(F)c(F)c1)N1CCC2(CC1)OCCCO2,i
CCOC(=O)c1ccccc1NC(=O)CN1CCN(Cc2nc(-c3cccs3)cs2)CC1,i
O=C(CN1CCN(c2ccccc2F)C1=O)N1CCN(c2ccccc2O)CC1,i
O=C(NCCC1=CCCCC1)C1CCCN(c2nc3c(-c4ccccc4)csc3c(=O)[nH]2)C1 (centres undefined),i
Cc1nc2ccccc2n1CC1CCN(CC(=O)Nc2ccc(F)cc2F)CC1,i
Cc1ccc(C)c(-c2cc3c(=O)n(Cc4nc(-c5ccc(Br)cc5)no4)ncn3n2)c1,i
COc1ccccc1OCC#CCNC(=O)Cc1cccs1,i
O=C(CCS(=O)(=O)c1ccccc1)N1CC(Oc2nc3c(Cl)cccc3s2)C1,i
COc1ccc(N(C)S(=O)(=O)c2ccsc2C(=O)n2nc(C)cc2C)cc1OC,i
Cc1ccc2c(=O)c(-c3nc(-c4ccccc4C)no3)cn(CC(=O)NC3CCCCC3)c2n1,i
O=c1oc2ccc(Cl)cc2cc1S(=O)(=O)N1CCc2ccccc2C1,i
Cc1cccc(NC(=O)CSc2nc3c(oc4ccccc43)c(=O)n2Cc2ccco2)c1C,i
CN(C)S(=O)(=O)N1CC(c2nc(C3CC3)no2)C1,i
CCc1cc(CC)n(-c2nc3c(c(=O)n(CC(=O)OC)c(=O)n3C)n2C)n1,i
CCc1ccccc1N1N=NC2C(=O)N(c3cccc(Cl)c3)C(=O)C21 (centres undefined),i

# 2 entries drawn at random from the list so far, as already listed:
SMILES,GIRK2 act
O=C(c1cccs1)c1ccc(CNC(=O)C2CC=CCC2)s1 (centres undefined),i
COc1cc2nc3sc(Nc4cccc(C)c4)nn3c(=O)c2cc1OC,i

# (further entries)
SMILES,GIRK2 act
COc1ccccc1C1(CNC(=O)c2ccccc2Cl)CCOCC1,i
COc1ccc(NC(=O)Nc2ccc(Nc3ccc(C)nn3)cc2)c(OC)c1,i
O=c1cccnn1CCNS(=O)(=O)c1ccc(F)cc1,i
COC(=O)c1ccc2c(=O)n(Cc3ccc(F)cc3)c(N3CCSC3)nc2c1,i
CCc1nc2c(sc3cccc(F)c32)c(=O)n1CC(=O)Nc1c(C)cccc1C,i
NS(=O)(=O)c1ccc(CCNC(=O)c2ccc3c(=O)n(Cc4ccc5c(c4)OCO5)c(=S)[nH]c3c2)cc1,i
O=C1CCC(=O)N1NC(=O)C12CC3CC(CC(C3)C1)C2,i
CC(C)=CCc1c(O)cc2oc3cc(O)c(O)c(CC=C(C)C)c3c(=O)c2c1O,i
CCc1ccc(NC(=O)Cn2cc(-c3nc(-c4ccc(C)cc4)no3)ccc2=O)cc1,i
CCOC(=O)c1cccc(NS(=O)(=O)c2ccc3[nH]c(=O)cc(C)c3c2)c1,i
CCOC(=O)CN1N=C(c2ccccc2)Cn2c1nc1c2c(=O)n(C)c(=O)n1C,i
Cn1nc(CNC(=O)/C=C/c2cccs2)cc1-c1ccccn1,i
CN(CC(=O)N1CCC2(CC1)OCCO2)c1nc2c(C(F)(F)F)cccc2s1,i
COC(=O)c1ccc2c(=O)n(Cc3ccc(C(=O)NCCCc4ccccc4)cc3)c(=S)[nH]c2c1,i
O=C(Nc1ccccc1)Nc1ccc(Nc2cc(-n3cccn3)ncn2)cc1,i
Cc1ccc(-n2c(-c3ccccc3)cn3c4c(=O)n(CC(N)=O)c(=O)n(C)c4nc23)cc1,i
Cc1cccc(NC(=O)N2CCC(Oc3ccc(Cl)cn3)CC2)c1,i
Cc1cc(NC(=O)c2cccc([N+](=O)[O-])c2C)n(-c2nc(-c3ccccc3)cs2)n1,i
CC(C[N+](C)(C)C)OC(N)=O (centres undefined),i
Cc1cccc(Nc2nc(CC(=O)NC34CC5CC(CC(C5)C3)C4)cs2)n1,i
CCN(CC)C(=O)Cn1c(=O)n(CC2CCC(C(=O)N3CCCC3)CC2)c(=O)c2sccc21 (centres undefined),i
O=S1(=O)c2ccccc2C(c2ccccc2)=NN1Cc1cccc(C(F)(F)F)c1,i
Cn1c(=O)c([N+](=O)[O-])c(N2CCC(C(N)=O)CC2)c2ccccc21,i
O=C(/C=C/c1ccccc1)Nc1nnc(C2CC(=O)N(c3ccccc3)C2)o1 (centres undefined),i
C=C(C)COc1ccc(-c2[nH]ncc2Oc2ccccc2OCC)c(O)c1,i
O=C(NCCOc1ccccc1)c1nnn(-c2ccc(Br)cc2)n1,i
COc1ccc(CCNS(=O)(=O)c2ccc(C(C)(C)C)cc2)cc1OC,i
O=C1C(=O)N(CCCN2CCOCC2)C(c2ccco2)C1=C(O)c1ccncc1 (centres undefined),i

# Compound activity deposited in PubChem BioAssay by Vanderbilt University.
